Screening data deposited in PubChem BioAssay by National Center for Advancing Translational Sciences (NCATS).
VDR inh: Inhibitors of the vitamin D receptor (VDR): qHTS; hit rate 0.93% among 400,000; Potency, µM, inactives show max response, negative = inhibition, actives largely listed as inhibitors; AID 504847, 2011; VDR-SRC2-3 peptide fluorescence polarization, 2 h; Vitamin D3 receptor (Homo sapiens), P11473; active = well fitted inhibition curve with a large enough effect; inconclusive = small, poorly fitted or top-dose-only effect, or another doubt; inactive = no such curve, though single readings can be large or run the other way; note: series mostly up to about 120 µM
Target sequence (P11473 whole entry, looked up): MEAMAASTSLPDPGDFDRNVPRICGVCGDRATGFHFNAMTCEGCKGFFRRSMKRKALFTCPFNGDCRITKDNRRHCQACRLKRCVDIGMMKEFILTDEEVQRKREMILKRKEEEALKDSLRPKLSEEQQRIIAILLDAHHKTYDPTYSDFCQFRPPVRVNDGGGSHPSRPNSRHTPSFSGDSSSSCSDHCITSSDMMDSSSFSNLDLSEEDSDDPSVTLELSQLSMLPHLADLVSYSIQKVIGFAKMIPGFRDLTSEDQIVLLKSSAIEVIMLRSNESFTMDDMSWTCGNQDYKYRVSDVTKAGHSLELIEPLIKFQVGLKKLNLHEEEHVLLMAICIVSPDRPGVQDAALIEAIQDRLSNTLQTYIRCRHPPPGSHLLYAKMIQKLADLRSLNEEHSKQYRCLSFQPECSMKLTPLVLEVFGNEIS
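Fluorescence polarization assay of small-molecule disruption of VDR binding to coregulator peptide SRC2-3. Compounds and controls pin-transferred, then read after 2 h incubation at ambient room temperature.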
* marks the source's active call; other numbers are inactive results; ? = inconclusive; & = joins results of further samples; [ ] = dose if it differs, or a comment. % is set by controls: 0 for no effect and ±100 for the full control effect; potency is the fitted concentration of half-maximal effect.

SMILES | VDR inh
COC(=O)c1ccc(C(=O)N2CCCC(CNC(=O)c3ccccc3Cl)C2)cc1 (stereo not drawn) | -23%
O=C1ON=C(c2ccccc2)/C1=C/c1ccc(O)c(O)c1 | 45µM*
CC(=O)N(C)c1ccc(NC(=S)Nc2ccc(C(C)C)cc2)cc1 | -4%
CC(C)CCn1cnc2c1c(=O)n(C)c(=O)n2C | 8%
COc1cccc(NC(=O)COc2ccc(C(=O)N3CCN(C)CC3)cc2)c1 | -10%
COc1cc(C2SCC(=O)N2c2c(C)n(C)n(-c3ccccc3)c2=O)ccc1O (stereo not drawn) | 19%
Cc1cccc(OCCSc2nnc(-c3ccoc3C)n2C)c1 | -6%
CC(NC(=O)CN1C(=O)NC2(CCCCCC2)C1=O)c1ccccc1 (stereo not drawn) | -11%
O=C(CCn1cccc1)Nc1ccccc1F | 18%
COC(=O)Nc1sc(C(=O)N(C)C)c(C)c1C(=O)OC | -12%
Cc1cccc(C)c1NC(=O)CSc1nnc(CCCCCNC(=O)OC(C)(C)C)o1 | 1%
COc1ccccc1C(O)P(=O)(OC1CCCCC1)OC1CCCCC1 (stereo not drawn) | 11%
CCOc1cc([C@H]2[C@@H]3CCCC[C@]3(O)CCN2CC(=O)NCc2ccco2)ccc1O | -13%
CCOC(=O)C(=O)N1c2ccccc2C(N(C(=O)C(=O)OCC)c2ccccc2)CC1C (stereo not drawn) | -6%
CCSc1nc(N)c(NC(=O)c2ccc(Br)o2)c(=O)[nH]1 | 6%
CCn1c(CNC(=O)c2cccc(C)c2)nnc1SCC(=O)Nc1cccc(OC)c1 | 7%
CC(=O)c1ccc(N(CC(=O)NCc2ccc3c(c2)OCO3)C(=O)c2csnn2)cc1 | 8%
CC(C)n1ncc2c(C(=O)NCCc3ccc(F)cc3)cc(C3CC3)nc21 | 8%
COc1ccc2c(c1OC)C(=O)N1N=C(c3ccc(Cl)cc3)CC21 (stereo not drawn) | -9%
O=C(COc1ccc(C(=O)NCCc2ccccc2)cc1)Nc1ccccc1 | 14%
Cc1ccc(-c2nnc(Nc3cccc(Cl)c3)c3ccccc23)cc1S(=O)(=O)N1CCN(C)CC1 | 4%
N#Cc1cccc(C(=O)OCC(=O)NCc2ccco2)c1 | 32%[activator]
COc1ccc(NC(=O)/C=C/c2ccccc2)c([N+](=O)[O-])c1 | -2%
NC(=O)C1CCN(CCC(=O)Nc2cccc(Cl)c2)CC1 | 2%
COC(=O)c1cccc(C23CC4(C2)[C@H](CN(CC2CCCCC2)[C@@H]4c2ccccc2)C3c2ccccc2)c1 (stereo partly drawn) | -28%

Grouped by structure, the compounds so far containing fluorine
SMILES | VDR inh
O=C(CCn1cccc1)Nc1ccccc1F | 18%
CC(C)n1ncc2c(C(=O)NCCc3ccc(F)cc3)cc(C3CC3)nc21 | 8%

Next compounds:
SMILES | VDR inh
CCCCC(=O)Nc1ccc2c3c(cccc13)C(=O)N2CC | 10%
O=C(CSc1nnc(-c2ccccn2)o1)Nc1ccccc1Cl | 0%
Cc1ccc(-n2c(-c3ccco3)nc3c(cnn3-c3ccc(C)cc3)c2=O)cc1 | -5%&4%
COc1ccc(CCNC(=O)CCCOc2ccc(Cl)cc2)cc1OC | -6%
O=C(COC(=O)CNC(=O)c1ccccc1)NCc1ccc2c(c1)OCO2 | -13%
CCO[C@@H]1OC(C(=O)N2CCN(Cc3ccccc3)CC2)=C[C@H](C2CC2)[C@H]1CCCO | -15%
CCn1c(SCC(N)=O)nnc1-c1ccc2c(c1)OCO2 | 8%
Cc1cc(-c2ccc(C)c(S(=O)(=O)Nc3ccc(S(N)(=O)=O)cc3)c2)on1 | 4%
COc1ccc2nc(NC(=O)C3CCN(S(=O)(=O)c4cccc5nsnc45)CC3)sc2c1 | -12%
CC(C)Oc1ccc(S(=O)(=O)N2CCOCC2)cc1NC(=O)C1CCCCC1 | ?
O=C(OCCN1CCOCC1)c1ccc(O)cc1 | -3%
Cc1onc(-c2ccccc2)c1C(=O)NNC(=S)NC(=O)/C=C/c1ccccc1 | -20%
CCN1C[C@@H]2[C@@H]3C(=O)N(Cc4ccccc4)C(=O)[C@@H]3[C@](CC)(C1=O)N2C(=O)c1ccccc1 | 2%
O=C(c1ccco1)N1CCN(C(=O)c2cc3sccc3n2Cc2ccccc2)CC1 | 1%
COc1cc(OC)c(N(C)S(=O)(=O)c2cccc(C(=O)OCC(=O)N(C)C3CCCCC3)c2)cc1Cl | -13%
COc1ccc2nc(Cl)c(/C=N/Nc3ccccn3)cc2c1 | -13%
N/C(CC1CC1(Cl)Cl)=N\OC(=O)c1ccccc1 (stereo not drawn) | 9%
C[C@@H]1CN([C@@H](C)CO)C(=O)c2cc(NC(=O)Nc3ccc(F)cc3)ccc2O[C@@H]1CN(C)Cc1ccc(Oc2ccccc2)cc1 | -1%
COc1ccc(-c2cn3c(n2)sc2cc(C(=O)NCCc4ccc(OC)cc4OC)ccc23)cc1 | 10%
CCN1CCN(C(=O)/C=C/c2ccc(C)o2)CC1 | -9%
CNC(=O)/C(C#N)=C/c1c(N2CCCCCC2)nc2c(C)cccn2c1=O | 9%
C=CCNc1nc(NCCN2CCOCC2)nc(OC)n1 | 6%
CCOc1ccc(NC(=O)CN2CCN(c3ccccc3C)CC2)cc1S(=O)(=O)N1CCCC1 | -20%
COc1ccc2nc3oc(C(=O)N4CCN(c5cccc(C(F)(F)F)c5)CC4)cc3cc2c1 | -8%
CCc1ccc(OCC(=O)N/N=C/c2ccc(OS(=O)(=O)c3ccc(C)cc3)c(OC)c2)cc1 | 18%
SMILES | VDR inh
CCN(CC)c1ccc(C(=O)N/N=C(\C)c2ccc(O)cc2)cc1 | 9%
C[C@@H](NC(=O)C(=O)c1c[nH]c2ccccc12)c1ccccc1 | -14%
Cc1ccc(-n2nc(C)c3c2C(Br)C(C)(C)CC3=O)nc1 (stereo not drawn) | ?
O=C(c1ccc(F)cc1)C1CCN(CCCCc2ccccc2)CC1 | 8%
Cc1c(OC(C)C(=O)NCCN2CCOCC2)ccc2c3c(c(=O)oc12)CCC3 (stereo not drawn) | -6%
O=C(NCCc1ccccn1)c1ccc(OC2CCN(Cc3ccccn3)CC2)cc1 | -7%
Cn1cc(S(=O)(=O)NCc2ccc(F)cc2)c(=O)n(C)c1=O | -1%
C=CCNC(=O)CCc1nnc(C2(c3ccc(Cl)cc3)CCC2)o1 | -5%
COc1cc(NS(=O)(=O)c2ccc(Nc3nc(-c4ccccc4)cs3)cc2)nc(OC)n1 | -16%
O=C1C(=O)N(Cc2ccccc2)C(=O)N1CCOc1ccccc1 | 4%
CCO/C=C1\C(=O)N(c2ccccc2)C(=O)c2ccccc21 | -15%
O=C(O)c1cc(N/N=C/c2ccc(-c3ccc(F)cc3)o2)ccc1Cl | -14%
O=C(CC1CCCC1)OCn1nnc2ccccc2c1=O | -2%
O=C(C1CCC(=O)N(C2CCCCCC2)C1)N1CCN(c2ccccc2Cl)CC1 (stereo not drawn) | 7%
Cc1cc(NC(=O)CSc2nnc(C)c(=O)[nH]2)no1 | -5%
O=C(CC1C(=O)NCCN1Cc1ccccc1C(F)(F)F)NCCc1ccccn1 (stereo not drawn) | ?
CC(C)(C)NC(=O)COc1ccc(CNCCc2ccccc2)cc1 | 10%
Cn1c(=O)cnc2cnc(Nc3ccccc3)nc21 | ?
CSc1nsc(SCC(=O)Nc2ccc(O)c(C(=O)O)c2)n1 | -1%
CC1CCN(C(=O)COc2ncnc3ccccc23)CC1 | -6%
COc1cccc(CNC(=O)C2CCN(S(=O)(=O)c3c(C)nn(C)c3C)CC2)c1 | -18%
CCOC(=O)c1[nH]c(C)c(C(=O)OCC(=O)NCc2ccc(Cl)cc2)c1C | -20%
CCCCn1c(-c2sccc2C)n[nH]c1=S | 2%
O=C(N/N=C/c1ccc(O)c(O)c1O)/C(=C/c1ccc([N+](=O)[O-])cc1)NC(=O)c1ccccc1 | ?
Cc1ccc(O)c(NC(=O)CN(C)S(=O)(=O)c2ccc(Cl)cc2)c1 | -4%

Random excerpt: two compounds from above
SMILES | VDR inh
CCOC(=O)c1[nH]c(C)c(C(=O)OCC(=O)NCc2ccc(Cl)cc2)c1C | -20%
CC1CCN(C(=O)COc2ncnc3ccccc23)CC1 | -6%

The list continues.
SMILES | VDR inh
CC12CCC(=O)N1C(C(=O)Nc1nc3ccccc3s1)CS2 (stereo not drawn) | -10%
Cc1ccccc1NC(=O)Cc1nnc(SCC(=O)NC2CCCCC2)n1C | 3%
COc1ccccc1N1CCN(C(=O)c2cc(-c3ccc(C)cc3)on2)CC1 | 12%
Cc1cc(C)c(NC(=O)CSc2nc3ccccc3c(=O)n2CCCN2CCOCC2)c(C)c1 | -2%
CN1CCN(C(=O)c2ccc(Oc3ccc([N+](=O)[O-])cc3)cc2)CC1 | -2%
c1ccc2c3c([nH]c2c1)[C@@H]1[C@H]2CC[C@H]([C@H]4CCCN[C@H]42)N1CC3 | -1%
Cc1ccc(C)c(S(=O)(=O)NCCCn2ccnc2)c1 | 3%
CNS(=O)(=O)c1cccc(C(=O)OCC(=O)Nc2ccc3ccccc3c2)c1 | 8%
CC(=O)c1cccc(NC(=O)Nc2cnn(Cc3ccc(Cl)cc3Cl)c2)c1 | -1%
NCCCCN=C(N)N | 11%&14%
CSc1nnc(-c2nnc(SC)n2-c2ccccc2)n1-c1ccccc1 | -15%
Cc1ccc(NC(=O)c2ccc3c(c2)C(=O)N(c2cc(C)ccc2C)C3=O)nc1 | 9%
Cc1ccc(NC(=S)NC2CCSc3ccccc32)cc1C (stereo not drawn) | 21%
CN1/C(=C\C=N\NC(=O)c2cccnc2)C(C)(C)c2ccccc21 | -4%
Cc1ccc(NC(=O)C2CC(=O)N(CCc3ccccc3)C2)cc1Cl (stereo not drawn) | -3%
Cc1ccc(/C=C/C2=NN(Cc3ccccc3)C(=O)CC2)cc1 | -7%
Cc1ccccc1C(=O)Oc1ccc2ccc(O)cc2c1 | -1%
COc1ccc(CNC(=O)c2cc(-n3cnnc3)ccc2Cl)cc1 | -7%
CCOC(=O)c1oc2ccc(CNC3CCCCC3)c(Cl)c2c1C | 2%
Cc1ccc(S(=O)(=O)N(C)C)cc1NC(=O)COC(=O)/C=C/c1ccc2c(c1)OCO2 | -9%
CC(C)(C)SCCNC(=O)c1ccc(NS(C)(=O)=O)cc1 | -7%
COc1ccc(-c2cc(-c3n[nH]c(=S)n3-c3cccc4ccccc34)[nH]n2)cc1 | -14%
COc1cc(SC)ccc1C(=O)NCc1ccccc1 | -10%
Cc1[nH]n(-c2nc(-c3ccccc3F)cc(=O)[nH]2)c(=O)c1CCO | -12%
O=C(C1CCCN(S(=O)(=O)c2cccc3nsnc23)C1)N1CCc2ccccc2C1 (stereo not drawn) | -10%

Reformatted with each value named: part of the list above.
structure: Cc1ccccc1NC(=O)Cc1nnc(SCC(=O)NC2CCCCC2)n1C
  VDR inh: 3%
structure: COc1ccccc1N1CCN(C(=O)c2cc(-c3ccc(C)cc3)on2)CC1
  VDR inh: 12%
structure: Cc1cc(C)c(NC(=O)CSc2nc3ccccc3c(=O)n2CCCN2CCOCC2)c(C)c1
  VDR inh: -2%
structure: CN1CCN(C(=O)c2ccc(Oc3ccc([N+](=O)[O-])cc3)cc2)CC1
  VDR inh: -2%

Other structures:
SMILES | VDR inh
CC1=C(CCC(=O)O)c2cc3nc(cc4[nH]c(cc5[nH]c(cc1n2)c(C)c5C(C)O)c(C)c4C(C)O)C(C)=C3CCC(=O)O (stereo not drawn) | 18µM*
CCCCc1cc(=O)oc2cc(OC(C)C(=O)NCC3CCC(C(=O)O)CC3)c(Cl)cc12 (stereo not drawn) | 1%
CCc1ccccc1NC(=S)N(Cc1ccc(OC)cc1)CC1CCC(C(=O)O)CC1 (stereo not drawn) | 16%
COc1cc(C(=O)Nc2c(C(=O)Nc3ccccc3F)oc3ccccc23)cc(OC)c1OC | 19%
Cc1ccccc1NCC(=O)N=Nc1c(O)[nH]c2ccc([N+](=O)[O-])cc12 | -4%
CCNC(=O)NC(=O)C(C)OC(=O)c1cccnc1SC (stereo not drawn) | -11%
OC(CN1CCOCC1)c1ccc(F)cc1 (stereo not drawn) | -24%
O=C(Nc1ccc(S(=O)(=O)N2CCC(c3nc4ccccc4s3)CC2)cc1)c1ccccc1F | 12%
Cc1ccc(NC(=O)COC(=O)c2ccc(=O)n(Cc3ccccc3)n2)cc1F | 8%
CC(C)n1cnc2cc(NCc3ccccc3O)ccc21 | -1%
COC(=O)c1ccc(NC(=O)CNCc2ccncc2)cc1 | 12%
Nc1nc(N)c(N=Nc2ccccc2)c(=O)[nH]1 | 13%
O=C(Nc1ccc(Cl)cc1)N1CCOC12CCC1(CC2)OCCO1 | -5%
O=C(NCC1CCCO1)[C@@H]1CSC2c3ccccc3C(=O)N21 (stereo partly drawn) | 3%
COc1cccc(C(=O)Nc2cccc(NC(C)=O)c2)c1 | -2%
OC[C@H]1O[C@@H](n2cnc3cncnc32)[C@H](O)[C@@H]1O | -2%&10%
CC(=O)c1ccc(-c2ccc(C(=O)N3CCCc4ccccc43)o2)cc1 | -4%
C/C(=N\NC(=O)c1nnn(-c2nonc2N)c1C)c1ccc(OCc2ccccc2)cc1 | -18%
COCCN(C(=O)COC(=O)c1cccnc1Cl)c1c(N)n(Cc2ccccc2)c(=O)[nH]c1=O | -22%
CC1CCC2(CC1)NC(=O)N(CC(=O)N(Cc1ccccc1)C(C)(C)C)C2=O (stereo not drawn) | 4%
COc1ccc(CCNC(=O)Cc2cc(=O)[nH]c(=O)[nH]2)cc1OC | -5%
CCCN1CCN(C2CCCCC2NS(=O)(=O)c2ccc(Cl)cc2)CC1 (stereo not drawn) | -7%
Cn1c(=O)c2c(nc(CCc3ccccc3)n2C)n(C)c1=O | -9%

Only part of the results is shown, so the mix of outcomes need not match the whole.
